Screening data as filed in PubChem.
ALR H2O2 inh – inhibitors of human ALR sulfhydryl oxidase, primary screen, biochemical, H2O2 detection, HRP-luminol luminescence, single point; actives 3.8% (n = 290,000); FAD-linked sulfhydryl oxidase ALR (Homo sapiens), P55789; purified ALR, DTT oxidation; AID 485317, 2010; inhibition, % (no concentration beside the values);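 active = mean and each replicate at 75% or more; inconclusive = only one of the two met; inactive = neither met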;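 also: stock transfer was 7.5 nL into about 7.5 µL; 0% = neutral wells and 100% = wells with inactivated enzyme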
Target sequence (P55789 whole entry, looked up): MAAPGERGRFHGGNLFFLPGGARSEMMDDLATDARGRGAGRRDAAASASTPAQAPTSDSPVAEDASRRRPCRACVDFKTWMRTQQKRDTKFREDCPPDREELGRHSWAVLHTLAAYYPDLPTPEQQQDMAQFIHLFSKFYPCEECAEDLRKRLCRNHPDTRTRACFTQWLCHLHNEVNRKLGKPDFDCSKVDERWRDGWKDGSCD
AF4-AF9 inh – inhibitors of AF4 peptide binding to AF9, primary screen, biochemical, AlphaScreen, biotin-AF4 peptide, FLAG-AF9, single point; actives 0.47% (n = 350,000); Protein AF-9 (Homo sapiens), P42568; inhibition, % at 10 µM; AID 651704, 2012;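 active = every replicate reaching a set inhibition limit, whatever the replicate mean, cut at about 25% in these data; inconclusive = mean inhibition reaches that limit but some replicates miss it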;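 also: 0% = plate neutral control median and 100% = total signal loss; the record names both 10 and 1 µM as test concentration; the first replicate is given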
Vif TR-FRET – inhibitors of Vif binding to APOBEC3G peptide, primary screen, biochemical, TR-FRET, GST-Vif 1-94, biotin-A3G peptide, dose response retest (AID 1117319). TR-FRET GST-Vif / biotin-A3G peptide binding; higher % means a stronger effect; test concentration not given here; strong numbers were not always called active. inhibition, %; hits with a dose series show IC50 in µM. actives 0.57% (n = 260,000);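 active = above the screen mean plus three standard deviations and confirmed in dose response; inconclusive = results disagree or hit not tested in dose response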;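 also: Vif residues 1-94 fused to GST binding biotinylated APOBEC3G peptide 110-148; 0% = full assay without inhibitor and 100% = GST in place of GST-Vif; retest series ran down from 100 µM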
HNF4A DNA FP – change in binding of human HNF4A to DNA, primary screen, biochemical, fluorescence polarization, FITC-DNA; Hepatocyte nuclear factor 4-alpha (Homo sapiens), P41235; 1 h; activity change, % at 10 µM; actives 0.3% (n = 360,000); AID 1224865, 2016; in the data active = activity change above about 30%, passing the limit was not always enough;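 also: controls were the assay level and a saturating level of protein; the project sought stronger binding though the title names inhibitors; some compounds called inactive have numbers as strong as hits; positive values seem to mean higher polarization but the record does not say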
Target sequence (P41235 whole entry, looked up): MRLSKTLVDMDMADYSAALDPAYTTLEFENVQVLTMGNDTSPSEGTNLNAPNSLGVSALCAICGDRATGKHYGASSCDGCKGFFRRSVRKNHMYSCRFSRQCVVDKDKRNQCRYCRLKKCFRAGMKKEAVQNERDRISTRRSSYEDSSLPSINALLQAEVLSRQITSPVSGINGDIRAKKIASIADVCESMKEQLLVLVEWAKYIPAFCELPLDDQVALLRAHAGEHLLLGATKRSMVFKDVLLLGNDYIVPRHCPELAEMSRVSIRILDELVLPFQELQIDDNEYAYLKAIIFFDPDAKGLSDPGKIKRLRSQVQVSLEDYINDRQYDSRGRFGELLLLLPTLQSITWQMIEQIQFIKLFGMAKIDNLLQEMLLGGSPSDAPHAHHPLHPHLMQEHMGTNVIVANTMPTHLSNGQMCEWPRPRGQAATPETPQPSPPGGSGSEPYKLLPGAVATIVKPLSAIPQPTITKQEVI
E coli growth – E. coli growth inhibition, primary screen, OD600 | OD600 absorbance (concentration not given with the values) | actives 0.21% (n = 330,000) | Escherichia coli growth, 23 h; active compounds read low;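 active = OD600 absorbance below the run mean of sample wells minus 3.6 SD, in any replicate, cut at about 0.56 in these data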;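 also: stock transfer was 300 nL into about 60 µL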
FGF22 binding – binders of human FGF22 protein, primary screen, FGF22 synaptogenesis inhibitor project, biophysical, thermal shift, single point; actives 1.5% (n = 340,000); calls only at 9.99 µM; Fibroblast growth factor 22 (Homo sapiens), Q9HCT0; recombinant FGF22 thermal shift, SYPRO orange fluorescence; percent of sucrose octasulfate shift, DMSO zero;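 active = melting point raised past a set limit in the mean and every replicate; inconclusive = no clear call; three in four hits are not shown here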
Target sequence (Q9HCT0 whole entry, looked up): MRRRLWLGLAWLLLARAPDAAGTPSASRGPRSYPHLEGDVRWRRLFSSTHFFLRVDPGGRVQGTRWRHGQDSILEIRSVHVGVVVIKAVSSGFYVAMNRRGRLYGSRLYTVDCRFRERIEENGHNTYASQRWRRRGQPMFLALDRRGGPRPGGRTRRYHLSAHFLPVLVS
rRNA inh HTS – reduced GFP signal of wild-type E. coli, primary screen, bacterial rRNA inhibitor project, GFP/RFP fluorescence, OD600, single point | E. coli WT GFP vs humanized-ribosome RFP mutants, 24 h; active compounds read low; DMSO median 0, no signal -100 | GFP signal change (wild-type ribosome), % (no concentration beside the values) | actives 1.6% (n = 350,000) | AID 720706, 2013;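 active = significant combined selectivity score with lowered wild-type GFP, culture density cut under 30%, mutant RFP and density less affected; inactive = any of these conditions unmet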; also: one replicate is shown; some compounds called inactive have numbers as strong as hits
rRNA inh HTS OD600 – recorded beside rRNA inh HTS, whose call it bears; OD600 change, %; measured here: OD600 growth;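 optical density of the mix in the first replicate; 0 = DMSO median and -100 = no signal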
rRNA inh HTS RFP – recorded beside rRNA inh HTS, whose call it bears; RFP signal change, %; measured here: RFP humanized mutant strains;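 first replicate; 0 = DMSO median and -100 = no signal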
An asterisk follows results filed as active; i = inactive; ? = inconclusive; · = not tested or not shown. The list is partial, so the mix of outcomes need not match the whole.

molecule	ALR H2O2 inh	AF4-AF9 inh	Vif TR-FRET	HNF4A DNA FP	E coli growth	FGF22 binding	rRNA inh HTS	rRNA inh HTS OD600	rRNA inh HTS RFP
CCCN1C(=O)S/C(=C/c2ccc(N3CCOCC3)o2)C1=O	99*	-6.2	·	217	0.69	i	9	8	-0.1
CCC1CCCCN1S(=O)(=O)c1ccc(NC(=O)c2nc(S(C)(=O)=O)ncc2Cl)cc1 (centres undefined)	77*	1.8	·	-3.5	·	i	-29*	-18*	0.7*
Fc1ccccc1-c1nnc2n1N=C(c1ccc(OC(F)F)c(OCC3CC3)c1)CS2	-3	0.2	·	-2.4	0.71	i	9	10	0.0
Cc1noc(C)c1S(=O)(=O)Nc1ccc(C(C)C)cc1	6	6.1	·	-4.2	0.69	i	-31	-53	7.3
COCCCNC(=O)Cn1cnc(C(=O)Nc2ccc(C)c(C)c2)n1	·	-0.3	-2%	0.6	0.72	i	5	11	-2.4
Cc1c(Cc2ccccc2)sc(NC(=O)/C=C/c2cccc3ccccc23)c1C(N)=O	-9	4.6	10%	4.4	0.72	i	6	10	0.4
CCOC(=O)Cc1csc2nc3sc(C)c(C)c3c(=O)n12	-4	·	0%	0.5	0.7	·	·	·	·
C=CCNC(=O)C(=O)NCC1CCCN1S(=O)(=O)c1cccs1 (centres undefined)	-12	0.2	-1%	-0.1	0.72	i	4	-2	-1.1
Cc1c(NC(=O)c2cc(-n3cnnc3)ccc2Cl)cccc1-c1nc2ccccc2s1	88*	·	-8%	-2.7	0.75	·	·	·	·
COc1ccc(CNC(=O)C2CCCN2C)cc1OC (centres undefined)	-11	-66	22%	1.6	0.68	i	8	7	-3.6
CCOc1ccc(/C=C/C(=O)Oc2ccccc2)cc1	6	-0.6	9%	2.6	0.69	i	25	20	5.5
Cc1cc(C)c(NC(=O)CN(C)CC(=O)Nc2cccc(S(=O)(=O)N(C)c3ccccc3)c2)c(C)c1	4	2.5	·	-2.0	0.64	i	-10	-23	4.5
COCCCNC(=O)C1CC(=O)N(C2CCCC2)C1 (centres undefined)	-3	-0.8	-8%	-2.4	0.72	i	2	3	4.5
O=C(CSc1ncc(-c2ccccc2)[nH]1)Nc1ccccc1	99*	3.8	5%	-5.8	0.64	i	-32*	-18*	1.1*
C=CCNC(=O)CC(=O)N/N=C/c1cccc(C)c1	-29	-34	-4%	3.6	·	i	16	1	0.1
CC(C)NC(=O)N(C)C[C@H]1Oc2c(NC(=O)C3CC3)cccc2C(=O)N([C@H](C)CO)C[C@@H]1C	4	-2.2	·	-1.2	·	i	3	6	-3.0
Cc1ccc(C)c(NC(=O)COC(=O)CC2c3ccccc3CCN2S(=O)(=O)c2ccc(F)cc2)c1 (centres undefined)	17	·	3%	-2.0	0.72	·	·	·	·
CC(C)NC(=O)Nc1ccc2c(c1)C(=O)N([C@@H](C)CO)C[C@@H](C)[C@H](CN(C)C(=O)NC1CCCCC1)OCCCC[C@@H](C)O2	·	-3.0	·	·	·	i	1	2	3.7
Cn1cccc1C(=O)C(=O)Nc1cccc(Cl)c1Cl	-5	·	1%	-4.3	0.74	·	·	·	·
Cc1cc([N+](=O)[O-])cc(/C=N/n2c(C)nc3ccccc3c2=O)c1O	2	11	2%	0.7	·	i	7	-3	-3.6
Nc1ncc(CN2CCCC(C(=O)Nc3ccc(-c4ccco4)cc3)C2)cn1 (centres undefined)	0	8.1	0%	2.2	0.68	i	5	4	1.9
Cc1ccc[n+](CC(=O)Nc2ccc(Cl)c([N+](=O)[O-])c2)c1	5	1.1	·	0.8	0.65	i	3	8	3.2
CC(CCc1ccccc1)NC(=O)/C=C/c1ccccc1 (centres undefined)	?	0.2	1%	-2.9	0.72	·	·	·	·
Cc1[nH]c2ccccc2c1N=Nc1ccc(F)cc1	98*	30*	0%	-0.9	0.63	i	-52	-52	-15
O=C(C[C@H]1CC[C@H](NC(=O)CN2CCOCC2)[C@H](CO)O1)NC1CCCCC1	·	-2.6	·	·	·	i	2	-14	1.6
COCC(C)n1c(C)cc(C(=O)CSc2nnnn2-c2ccc(O)cc2)c1C (centres undefined)	-5	9.3	5%	-1.0	0.73	i	-28*	-23*	-1.7*
C=CCn1c(-c2cccc(OC)c2)n[nH]c1=S	96*	-22	-8%	-1.5	0.71	i	9	7	-1.1
COC(=O)Cc1c(O)ccn(Cc2ccc(OC)c(OC)c2)c1=O	-2	-2.7	4%	4.7	0.68	i	16	11	2.6
Cc1ccc(NC(=O)N2CCN(c3ncccc3C(F)(F)F)CC2)cc1	-1	-3.7	-13%	-1.0	0.64	i	-18	-17	-4.8
CC(=O)Nc1ccc(NC(=O)CCc2c(C)noc2C)cc1	·	-1.7	0%	2.7	0.7	i	10	7	0.0
O=C(Nc1nccs1)c1ccc(Cl)c(S(=O)(=O)N2CCCCC2)c1	3	·	1%	-3.3	0.73	·	·	·	·
O=C(O)COCC(=O)NC1CCN(Cc2ccccc2)CC1	-2	0.5	6%	4.5	0.67	i	14	13	2.2
C[C@@H]1CCCCO[C@H](CN(C)C(=O)CCCN(C)C)[C@@H](C)CN([C@H](C)CO)C(=O)c2cc(NC(=O)C3CCCCC3)ccc2O1	·	-6.9	·	·	·	i	0	9	1.4
C[C@H]1CN([C@@H](C)CO)C(=O)Cc2cc(NS(=O)(=O)c3ccc(Cl)cc3)ccc2O[C@H]1CN(C)Cc1ccccc1	·	3.8	·	·	·	i	-33	-56	8.4
COC(=O)c1ccccc1NC(=O)CSc1nnnn1-c1ccc(C)cc1C	-1	·	29%	-1.5	0.69	·	·	·	·
Cc1cc(NC(=O)CSc2nnc(-c3ccc(S(=O)(=O)N4CCCC4)cc3)n2C)no1	-13	·	-2%	-2.2	0.68	·	·	·	·
C[C@@H]1CN([C@@H](C)CO)C(=O)Cc2cc(NC(=O)Nc3ccccc3)ccc2O[C@H]1CN(C)CC1CCCCC1	·	10	·	·	·	i	3	-7	3.6
Nc1ccc2nc(CCCO)[nH]c2c1	99*	13	-7%	-2.2	0.7	i	18	13	-5.9
CC(=O)NS(=O)(=O)c1ccc(NC(=O)C2c3ccccc3Oc3ccccc32)cc1	13	·	-5%	2.9	0.74	·	·	·	·
O=C1NC(=O)C(Cc2ccc(O)cc2)N1 (centres undefined)	·	-2.0	·	-2.8	·	i	-5	-4	-4.0
COc1cc(NC(=S)Nc2cccnc2)cc(OC)c1OC	32	3.4	7%	-1.0	0.72	i	7	2	-7.8
NS(=O)(=O)c1ccc(CCNC(=O)CCc2nc3sc4c(c3c(=O)[nH]2)CCCC4)cc1	-2	-8.7	7%	1.4	0.66	i	0	3	0.4
Cc1c(-c2nc(-c3ccc(C(C)(C)C)cc3)no2)n(C)oc1=O	·	-6.0	-4%	5.2	0.71	i	-8	-3	-4.2
Cc1ccc(NC(=O)c2cccc(S(=O)(=O)N3CCc4ccccc4C3)c2)nc1	1	-12	-9%	-1.2	0.69	i	4	1	1.8
C[C@@H]1CN([C@@H](C)CO)S(=O)(=O)c2ccc(C3=CCCC3)cc2O[C@@H]1CN(C)C(=O)c1ccncc1	·	-2.1	·	·	·	i	3	17	-2.0

Sorted by length of the SMILES (low to high): some entries from above.
molecule	ALR H2O2 inh	AF4-AF9 inh	Vif TR-FRET	HNF4A DNA FP	E coli growth	FGF22 binding	rRNA inh HTS	rRNA inh HTS OD600	rRNA inh HTS RFP
Nc1ccc2nc(CCCO)[nH]c2c1	99*	13	-7%	-2.2	0.7	i	18	13	-5.9
O=C(Nc1nccs1)c1ccc(Cl)c(S(=O)(=O)N2CCCCC2)c1	3	·	1%	-3.3	0.73	·	·	·	·
CC(=O)NS(=O)(=O)c1ccc(NC(=O)C2c3ccccc3Oc3ccccc32)cc1	13	·	-5%	2.9	0.74	·	·	·	·

More compounds.
molecule	ALR H2O2 inh	AF4-AF9 inh	Vif TR-FRET	HNF4A DNA FP	E coli growth	FGF22 binding	rRNA inh HTS	rRNA inh HTS OD600	rRNA inh HTS RFP
COc1ccc2c(c1OC)C(=O)N(C(C)C(=O)O)C2=O (centres undefined)	-6	·	12%	-0.9	0.68	·	·	·	·
CN(C(=O)COC(=O)C1(C)CC1(Cl)Cl)c1c(N)n(Cc2ccccc2)c(=O)[nH]c1=O (centres undefined)	-3	0.5	-4%	1.4	0.68	i	6	6	-2.9
COC(=O)CCC(=O)NC(=S)Nc1ccccc1F	-2	-8.5	-4%	0.0	0.64	i	4	-1	-3.0
Cc1nc(C)c(-c2ccn(C(=O)NC(C)C)n2)s1	-2	-4.3	-6%	-0.6	0.69	i	-5	-1	-0.5
CC(C)C(NC(=O)CN(c1cccc(F)c1)S(C)(=O)=O)C(C)C	-2	·	6%	-2.4	0.73	·	·	·	·
O=C(Nc1cccc2ccccc12)c1ccc2sc([C@@H]3O[C@H](CO)[C@H](O)[C@H](O)[C@H]3O)nc2c1	·	-4.5	·	3.6	·	i	17	20	0.2
Cc1c(NC(=O)c2cc(-c3ccc(F)cc3)nc3ccccc23)c(=O)n(-c2ccccc2)n1C	·	-0.1	-1%	2.5	0.71	i	-14	-14	7.7
Cc1ccc(S(=O)(=O)CS(=O)(=O)c2ccc(C)cc2)cc1	·	-3.0	9%	-1.5	·	i	-2	-1	-1.0
O=C(C[C@H]1CC[C@H](NS(=O)(=O)c2ccccc2)[C@@H](CO)O1)NCc1ccncn1	·	-0.6	·	·	·	i	2	-2	-0.3
CCOC(=O)c1ccc(N/C=C/C(=O)c2ccccc2)cc1	0	0.8	-1%	-1.4	0.66	i	-2	5	1.0
C[C@@H]1CN([C@H](C)CO)S(=O)(=O)c2ccc(C3=CCCCC3)cc2O[C@@H]1CN(C)Cc1ccccc1F	·	9.2	·	·	·	i	-2	-3	2.7
Nc1ncncc1-c1ccc(F)cc1	·	-1.4	2%	-3.9	·	i	-5	8	-8.0
Cc1ccc(Cl)c(OCC(=O)NCC(c2cccs2)N2CCOCC2)c1 (centres undefined)	-2	5.7	7%	2.1	0.69	i	-5	1	0.4
CN(C(=O)COC(=O)c1ccc(Br)c(S(=O)(=O)N2CCOCC2)c1)C1CCCCC1	3	0.0	0%	-2.2	0.67	i	·	·	·
COc1ccc(CNC(=O)C/C(C)=N/NC(=O)Cc2ccc(OC)cc2)cc1	-2	·	1%	6.8	·	·	·	·	·
CC(C)[C@H](NC(=O)c1cccc(S(=O)(=O)N2CCOCC2)c1)C(=O)NCc1ccc(F)cc1	-1	-2.5	-3%	4.9	0.73	i	3	10	-0.8
O=C(O)CCCNC1=NCCC1	2	·	14%	3.3	0.74	·	·	·	·
Cc1ccc(SCc2c(C(=O)N/N=C/c3ccccc3)nnn2-c2nonc2N)cc1	3	-4.0	-5%	-2.8	·	i	-16*	-3.7*	4.4*
C/C=C/c1ccc2c(c1)O[C@@H](CN(C)Cc1ccc(F)cc1)[C@@H](C)CN([C@H](C)CO)S2(=O)=O	·	14	·	·	·	i	-42	-70	0.4
